UCH37 inh: inhibitors of human UCH37 deubiquitinase, primary screen, biochemical, Ub-AMC cleavage, fluorescence; Ubiquitin carboxyl-terminal hydrolase isozyme L5 (Homo sapiens), Q9Y5K5; 330,000 compounds, 0.33% hits; inhibition, % (test concentration not listed); purified proteasome/UCH37;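 active means mean of two replicates above 20%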;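 further: 0% = compound-free wells with enzyme and 100% = wells lacking proteasome; stock transfer was 100 nL into about 20 µL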
Target sequence (Q9Y5K5 whole entry, looked up): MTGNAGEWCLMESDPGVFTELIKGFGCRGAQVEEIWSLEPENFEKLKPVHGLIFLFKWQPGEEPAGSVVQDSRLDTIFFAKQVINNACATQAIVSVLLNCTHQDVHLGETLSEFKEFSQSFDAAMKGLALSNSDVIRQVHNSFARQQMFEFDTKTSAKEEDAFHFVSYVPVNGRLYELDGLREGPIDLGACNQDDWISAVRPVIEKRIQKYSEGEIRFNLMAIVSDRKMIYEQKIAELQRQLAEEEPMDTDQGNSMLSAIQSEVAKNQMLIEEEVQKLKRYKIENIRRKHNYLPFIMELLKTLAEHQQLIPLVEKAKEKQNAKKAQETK
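System: Proteasome-associated human UCH37 deubiquitinase; Input: 0.15 nM proteasome in added enzyme buffer; Also added: Ub-AMC substrate from 1 µM stock; Incubation: 30 min compound-proteasome preincubation then 25 min substrate reaction, room temperature; Detection: fluorescence, ex 355 nm, em 460 nm; Read-out: % inhibition of Ub-AMC cleavage fluorescence; Benchmarks: no-proteasome and no-compound wells.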
RanGTP-Impb inh: inhibitors of RanGTP-importin-beta interaction, primary screen, biochemical, FRET, CFP-Ran, YFP-importin-beta, homogeneous. inhibition, % (concentration not given with the values). 300,000 compounds, 1.1% hits. cell-free CFP-Ran/YFP-importin-beta FRET ratio;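 active means most replicates above 15%; inconclusive means exactly half above 15%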;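 further: 0% = DMSO wells and 100% = Ran loaded with GDP instead of GTP; wells of about 40 µL received 100 nL stock; the first replicate is given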
Beta apoptosis: inhibitors of cytokine-induced beta cell apoptosis, primary screen, luminescence. INS-1E cytokine-induced death, ATP luminescence, 48 h; percent of positive-control rescue, neutral wells zero. protection from apoptosis, % (no concentration beside the values). 300,000 compounds, 0.8% hits;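 active means all replicates at 75% or more, or half of them and the mean; inconclusive means half reach 75% but not the mean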;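 further: 0% = cytokine-treated negative control wells and 100% = positive control rescue; higher means more ATP so stronger rescue from cytokine killing; wells of about 40 µL received 100 nL stock; the first replicate is given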
A1 inh: caspase 3/7 activation in MEF A1-2A-BIM cells, primary screen, A1 inhibitor project, cell-based, luminescence, HTS; caspase activation, % (test concentration not listed); Caspase-Glo 3/7 luminescence, 3 h; percent of clofoctol response, vehicle zero; 330,000 compounds, 0.066% hits; AID 2462, 2010;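 active means over half of replicate activation scores above 10%, or exactly half above 10 with the replicate mean above 10; inconclusive means replicate mean below 10 yet half the replicates above 10; inactive means over half of replicates below 10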;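 further: wells of about 30 µL received 50 nL stock; many hits fall short of the cut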
LANA-H2B inh: blockers of LANA interaction with H2A/H2B – biochemical, FP readout, HTS, primary screen. Protein LANA1 (Human herpesvirus 8 type P (isolate GK18)), Q9QR71. cell-free LANA-H2A/H2B peptide, fluorescence polarization. inhibition, % (test concentration not listed). 320,000 compounds, 0.6% hits; in the data active means inhibition mostly above about 10%, no sharp cut-off; inactive means mostly below about 6.7%;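 further: stock transfer was 7.5 nL into about 10 µL; 0% = median of vehicle wells and 100% = median of positive control wells; one replicate is shown; the record names a cut of 25% in any replicate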
B2AR ag: beta2AR agonists driving receptor internalization, primary screen, cell-based, FAP fluorogen, flow cytometry | Beta-2 adrenergic receptor (Homo sapiens), P07550 | Am2.2-beta2AR cells; reference of the scale not given here | response, % (test concentration not listed) | 340,000 compounds, 0.43% hits | AID 504454, 2011;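 active means response above a set limit, near 3 SD of response in nonfluorescent compounds, cut at about 42% in these data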;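 further: stock transfer was 100 nL into about 11 µL; a reference agonist was the positive control; negative values mostly stem from fluorescent compounds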
Target sequence (P07550 whole entry, looked up): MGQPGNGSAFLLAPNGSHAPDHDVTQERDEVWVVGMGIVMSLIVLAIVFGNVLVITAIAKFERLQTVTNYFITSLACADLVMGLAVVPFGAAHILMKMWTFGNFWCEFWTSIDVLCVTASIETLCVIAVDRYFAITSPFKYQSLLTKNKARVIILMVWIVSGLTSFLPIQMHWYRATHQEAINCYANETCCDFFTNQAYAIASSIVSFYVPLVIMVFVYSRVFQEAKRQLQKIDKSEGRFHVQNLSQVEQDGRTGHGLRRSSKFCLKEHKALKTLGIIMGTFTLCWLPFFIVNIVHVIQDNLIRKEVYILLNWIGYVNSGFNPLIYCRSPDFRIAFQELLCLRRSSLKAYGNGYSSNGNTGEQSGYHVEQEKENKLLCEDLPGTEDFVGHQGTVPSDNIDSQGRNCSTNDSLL
Calb FLC: C. albicans growth inhibition with fluconazole, primary screen, CaCi-2 strain, Alamar Blue fluorescence | growth inhibition, % (concentration not given with the values) | 300,000 compounds, 0.57% hits | AID 1979, 2009 | C. albicans CaCi-2 (fluconazole-resistant clinical isolate) + fluconazole, 48 h;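 active means most replicates above 75%; inconclusive means exactly half above 75%; inactive means most below 75%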;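 further: all wells also contain fluconazole at 8 µg/ml as a sub-toxic cotreatment; 0% = median of DMSO wells and 100% = median of geldanamycin control wells; wells of about 8 µL received 7.5 nL stock; the first replicate is given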
T cruzi repl: inhibitors of intracellular T. cruzi growth, primary screen, luminescence, NIH3T3 host cells | T. cruzi beta-gal in NIH3T3, 90 h | inhibition, % (concentration not given with the values) | 300,000 compounds, 1.4% hits;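 active means mean inhibition across valid replicates above about 55%, limit read from the data; inconclusive means mean below that limit but half or more replicates reach it; inactive means mean below it, under half of replicates reach it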;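 further: signal also drops with host cell toxicity which is not excluded here; 0% = plate median of DMSO wells and 100% = zero luminescence signal; higher percent means less beta-gal luminescence so fewer parasites; stock transfer was 50 nL into about 50 µL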
Starred values were filed as active, the others as inactive; i = inactive; ? = inconclusive; / = no result given.

SMILES	UCH37 inh	RanGTP-Impb inh	Beta apoptosis	A1 inh	LANA-H2B inh	B2AR ag	Calb FLC	T cruzi repl
COc1ccc(-c2noc(CN(C)Cc3ccc(C)o3)n2)cc1	0.8	-3.0	-4	0.9	-5.1	-5	3	-9
O=C(O)CCCNS(=O)(=O)c1ccc(F)cc1	2.6	2.8	0	1.6	-5.7	4	-1	-1
COc1ccc(-n2nc(C(=O)NCC(=O)NCC3COc4ccccc4O3)c3ccccc3c2=O)cc1 (configuration not stated)	-6.7	-0.9	3	0.3	-3.9	0	18	12
Cc1cc(NC(=O)c2ccc(N3CCCC3)c([N+](=O)[O-])c2)no1	3.2	-4.2	-2	0.5	7.2	-15	-3	-1
CCOC(=O)N1CCC(N2CCCC(C(=O)c3ccc4cc(OC)ccc4c3)C2)CC1 (configuration not stated)	i	/	-1	0.4	7.5	-8	/	56*
CC(C)n1nc(C(=O)OCn2nnc3ccccc3c2=O)c2ccccc2c1=O	1.6	-1.7	-7	0.1	5.1	-6	2	-19
O=C(Cn1nc(C(=O)O)c2ccccc2c1=O)c1cc(F)ccc1F	5.8	9.4	-7	-0.2	0.3	-9	-11	-10
CC1CC(C)CN(C(=O)c2ccc3ncsc3c2)C1 (configuration not stated)	1.0	/	-2	2.6	3.2	-1	/	/
CCC(C)Nc1nc2c(c(=O)n(C)c(=O)n2C)n1Cc1ccc(Cl)cc1 (configuration not stated)	6.8	1.7	3	-0.7	-5.0	-4	-6	6
C=C1CCN([C@@H](CC(C)C)C(=O)O)S(=O)(=O)c2ccccc21	-1.4	1.0	-7	-0.3	2.8	4	-2	-1
COC(=O)c1sccc1NC(=O)CCC1CCCCC1	0.8	2.1	-1	-1.5	-3.5	5	-19	-6
Cc1ccccc1CS(=O)(=O)Cc1ccc(C(=O)NCc2ccco2)o1	5.6	0.4	0	0.1	-1.3	0	4	-3
CCOc1ccc(NC(=O)CSc2nc3c([nH]c4ccccc43)c(=O)n2C)cc1	-11	6.6	-8	-0.2	-1.0	-9	-3	-14
C[C@H](CO)N1C[C@H](C)[C@@H](CN(C)C(=O)Nc2ccc3c(c2)OCO3)Oc2ccc(NC(=O)NC3CCCCC3)cc2C1=O	-22	/	-5	0.3	2.7	-8	/	/
O=C(Nc1cccc(C(F)(F)F)c1)c1cccnc1NCCO	-20	-2.4	0	2.0	-1.9	2	-56	-8
CCCNC(=S)Nc1ccc(Cl)cc1C	4.1	2.5	-3	0.3	-9.9	8	-1	-14
OC(C#CCN1CCOCC1)(c1ccccc1)C1CC1 (configuration not stated)	0.4	-5.8	-4	-0.7	2.1	-3	-9	1
CC(CN1CCOCC1)(NS(=O)(=O)c1ccccc1)c1ccccc1 (configuration not stated)	0.7	6.1	-3	2.1	0.6	3	-4	-2
CC(C)CSc1oc(-c2ccco2)nc1S(=O)(=O)c1ccccc1	/	-0.8	-4	-2.6	-0.7	-9	5	25
Cn1c(=O)c2cc(S(=O)(=O)NC(C(=O)Nc3cccnc3)c3ccccc3)ccc2n(C)c1=O (configuration not stated)	4.6	/	-2	0.5	0.7	5	/	/
COc1ccc(C(C)=O)cc1Cn1cnc2c(cnn2C)c1=O	-2.3	8.2	-2	0.6	2.0	-15	1	4
O=C(Cn1c(=O)sc2ccccc21)Nc1ccc(O)cc1	0.2	-3.2	-13	-0.9	-10.0	-22	-12	-6
O=C([O-])c1cc(-c2ccccc2)cc(-c2ccccc2)[n+]1Cc1ccccc1	1.1	8.3	122*	-0.3	0.3	/	1	44
CC(=O)N(C)c1ccc(OCC(O)COc2ccc(N(C)C(C)=O)cc2)cc1	0.5	2.6	3	-0.4	2.3	3	0	-7
CC(=O)COc1ccc(-c2csnn2)cc1	4.0	3.3	-2	0.2	2.2	-7	3	-9
CC(C)n1c(CN2CCN(Cc3ccccc3)CC2)nc2ccccc21	0.9	5.6	-3	-0.7	-1.0	1	5	29
Cc1cccc(NC(=O)C2CCCN(S(=O)(=O)c3cccc4nsnc34)C2)n1 (configuration not stated)	1.4	-1.0	-1	0.5	5.0	-7	7	-1
N/C(=N\OC(=O)c1ccccc1F)c1cccc([N+](=O)[O-])c1	/	5.4	0	-7.7	-6.1	5	9	-10
O=C(CSc1nnc(CNC(=O)c2ccc(F)cc2)o1)NCc1ccccc1	5.3	2.4	-3	1.2	-1.6	-3	1	-9
COc1ccccc1NC(=O)C1CCCN1C(=O)Nc1ccc(F)cc1 (configuration not stated)	-0.4	2.5	-4	1.0	-4.8	-2	-14	-9
O=C1CC(c2ccccc2)=NN1c1ccc([N+](=O)[O-])cc1	15	0.1	21	-10	1.4	18	28	21
Cc1cc(C)cc(NC(=S)NCc2ccc3[nH]c4c(c3c2)CCCC4)c1	2.3	7.8	/	-0.1	-2.2	6	-12	11
CCCc1cc(-c2nc(-c3ccc(Br)cc3)cs2)ccn1	-0.5	4.7	5	1.4	2.7	0	47	-9
CC(C)(C)NC(=O)NC(=O)Cn1ccsc1=N	2.4	4.0	-8	-0.2	/	8	4	-2
COc1ccc(S(=O)(=O)Nc2cc3c4c(c2)CC(=O)N4CCC3)cc1C	0.8	-3.9	4	0.2	-1.7	3	6	-15
Cc1ccc(S(=O)(=O)NCCN=Cc2ccc(N(C)C)cc2)cc1	9.3	0.5	-2	0.8	0.7	4	1	-11
Cc1ccc(N(CC(=O)NC2CC2)S(=O)(=O)c2ccccc2)c(C)c1	4.5	0.8	-3	0.1	-0.9	2	7	-4
Cn1cc(/C=C2/SC(=O)N(CC(=O)Nc3ccc4c(c3)OCO4)C2=O)c2ccccc21	-3.6	5.0	21	-0.1	0.8	5	-10	8
O=c1oc2ccccc2cc1-c1cn2ccccc2n1	-21	5.2	13	-9.1	1.8	-5	-18	-10
COc1ccccc1OCC(=O)Sc1ccc(C)cc1	6.8	-0.8	-14	-0.4	-1.7	-38	-10	5
Cc1ccc(S(=O)(=O)NCC(=O)OCC(=O)c2ccc(Cl)s2)cc1	0.7	2.2	0	1.0	5.5	1	-17	0
CCCCOc1ccc(N(CC(=O)NC(C)(C)C)C(=O)CCC(=O)Nc2nccs2)cc1	0.0	0.2	-2	-0.3	1.6	-4	-7	8
O=C(c1cccc(S(=O)(=O)N2CCN(c3ccccc3)CC2)c1)N1CCCCCCC1	-2.3	-0.7	3	0.9	-2.2	-2	-21	20
Cc1cc(OCC(=O)NCCN2CCOCC2)c2c(C)c(C)c(=O)oc2c1	-84	-2.2	1	0.5	-3.9	1	-3	-4
CCOc1ccccc1OCC(=O)Nc1nnc(C)s1	1.8	5.3	3	-0.1	2.2	-5	-3	3
CCN1CCN(S(=O)(=O)c2cccs2)CC1	1.1	5.9	-2	0.6	-1.0	-9	-5	-8
Cc1ccc(C(C)C)c(OCC(=O)NNC(=O)CC2OC(=O)c3ccccc32)c1 (configuration not stated)	4.8	-4.0	3	-0.2	3.8	-8	-1	-10
CN(CCc1ccccn1)C(=O)Nc1cc(Cl)cc(Cl)c1	2.9	-0.4	-1	1.0	2.3	0	-16	5
CCc1ccc(N2C(=O)CC(c3ccc(F)cc3)C3=C2COC3=O)cc1 (configuration not stated)	1.9	-0.2	-3	0.3	-1.9	-6	-1	-23
Cc1ccc2c(c1)sc(=NC(=O)c1cccs1)n2C	-48	0.5	7	-7.6	3.9	32	73	21
CC(C)(O)[C@H](O)Cc1cc2ccc(=O)oc2cc1O[C@@H]1O[C@H](CO)[C@@H](O)[C@H](O)[C@H]1O	-6.3	/	-9	0.8	2.6	0	/	/
CCOC(=O)N1CCC(NC(=O)C2CCN(S(=O)(=O)c3cccs3)CC2)CC1	-0.7	-0.6	-1	0.4	-3.6	-1	0	-2
O=C1CCc2cc(S(=O)(=O)N3CCN(c4cccc(C(F)(F)F)c4)CC3)ccc2N1	2.8	0.7	7	1.6	-0.1	1	-3	-9
CN(c1cccc(NC(=O)CCSc2ccccc2)c1)S(C)(=O)=O	0.5	-1.1	3	-0.7	0.5	5	-23	-4
CCN(CC)S(=O)(=O)c1ccc(/C=C/C(=O)Nc2ccc(F)c(F)c2F)cc1	1.7	5.2	10	-0.6	-3.2	0	14	37
CN1C(=O)c2oc3ccccc3c(=O)c2C1c1cccnc1 (configuration not stated)	2.1	-2.5	-6	1.3	1.7	-2	?	-16
Cn1c(CCC(=O)O)nc2cc(S(=O)(=O)N3CCCCC3)ccc21	-0.3	/	-14	0.2	-2.0	6	/	/
COc1ccc(C(C(=O)NCc2ccccc2)N(Cc2ccco2)C(=O)c2snc(C(N)=O)c2N)cc1OC (configuration not stated)	-32	0.8	-20	0.7	0.7	10	19	-1
O=C(CCNS(=O)(=O)c1ccc(Br)cc1)NCc1ccco1	-0.7	3.0	-7	0.9	/	1	-4	-4
O=C(CCN1C(=O)c2ccccc2S1(=O)=O)Nc1ccccc1F	0.3	1.7	/	/	/	-2	0	8

The list continues.
SMILES	UCH37 inh	RanGTP-Impb inh	Beta apoptosis	A1 inh	LANA-H2B inh	B2AR ag	Calb FLC	T cruzi repl
O=C1c2ccccc2C(=O)N1CC1=NCCc2ccccc21	2.1	?	-4	-0.1	-9.2	0	-13	9
Cc1occc1C(=O)N1CCCC(CCC(=O)NCc2ccc(F)c(F)c2)C1 (configuration not stated)	1.9	4.1	-3	-0.3	4.5	3	4	-6
Cc1ccccc1C(=O)Nn1cnc2ccccc2c1=O	2.8	-1.5	-3	0.0	2.8	1	21	-12
Cc1ccc(N(CC(=O)NCc2ccco2)C(=O)CCC(=O)Nc2ccccn2)cc1C	3.8	?	-4	0.4	-2.3	-2	?	5
CCN(CC)CCCN(C(=O)c1ccco1)c1nc(-c2ccc(C)cc2)cs1	5.0	0.5	7	0.0	-1.9	4	-33	33
CC(/C=N/NC(=O)Cn1cnc2c1c(=O)n(C)c(=O)n2C)=C\c1ccco1	/	2.8	/	0.5	2.9	-4	8	/
C(=N\Nc1ccccn1)/c1cccnc1	/	4.4	-8	-1.3	-0.5	-2	1	2
CSc1ccc(C2C(C#N)=C(N)Oc3c2ccc(=O)c2c(C)oc(C)c32)cc1 (configuration not stated)	3.7	-0.3	-4	0.0	0.7	-26	13	9
C=CCNc1nnc(SC2CC(=O)N(c3ccc(OCCC)cc3)C2=O)s1 (configuration not stated)	-0.7	-0.6	-8	0.0	0.2	7	-9	-8

Not a hit list; overall some 4.3% were active at least once.
